PKD1 inh – PKD1 (human) kinase inhibition. Q15139. PKD1 kinase fluorescence polarization assay. inhibition, %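 (about 10 µM by stock and volumes)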. 200,000 compounds, 0.056% hits. AID 797;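 active = inhibition of 50% or more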;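 note: controls were vehicle for no effect and a reference inhibitor for full effect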
RGS16-Gao HTS – regulators of human RGS16-Galphao interaction; bead-based flow cytometry RGS16-Galphao binding, fluorescence; actives lie on both sides; binding response (% of control), % at 10 µM; 220,000 compounds, 0.38% hits;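 active = below 25% or above 175%, edge rows of some plates excepted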;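 note: Galphao activated by GDP with aluminum fluoride before binding; 100% = wells without compound and 0% = beads without RGS; some results beyond the cut were filed as inactive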
Target sequence (O15492 whole entry, looked up): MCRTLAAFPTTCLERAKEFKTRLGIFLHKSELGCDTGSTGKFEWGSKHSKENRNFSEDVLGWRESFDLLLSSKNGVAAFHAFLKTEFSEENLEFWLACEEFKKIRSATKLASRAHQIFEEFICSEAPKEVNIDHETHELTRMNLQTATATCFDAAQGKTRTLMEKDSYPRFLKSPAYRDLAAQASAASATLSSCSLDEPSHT
Target sequence (P09471 whole entry, looked up): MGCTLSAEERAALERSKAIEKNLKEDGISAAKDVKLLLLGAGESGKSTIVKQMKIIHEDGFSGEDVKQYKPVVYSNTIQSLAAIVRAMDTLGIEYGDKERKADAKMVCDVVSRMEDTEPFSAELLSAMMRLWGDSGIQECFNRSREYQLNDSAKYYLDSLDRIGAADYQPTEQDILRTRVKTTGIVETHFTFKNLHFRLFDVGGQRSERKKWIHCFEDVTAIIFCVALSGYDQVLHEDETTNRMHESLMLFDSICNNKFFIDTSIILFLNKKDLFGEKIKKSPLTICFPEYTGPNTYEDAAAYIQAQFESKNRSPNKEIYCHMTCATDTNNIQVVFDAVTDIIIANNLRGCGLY
Insulin prom inh – TRM-6 insulin promoter activity inhibition; AID 1273; 130,000 compounds, 0.9% hits; inhibition, % at 2 µM; TRM-6 cells (human fetal islet line), insulin promoter-eGFP reporter, imaging; reporter expression induced with tamoxifen;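 active = inhibition above the mean plus 3 SD, with well images judged a real hit on visual review, cut at about 60% in these data, passing the limit was not always enough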
GALR2 ag – agonists of human galanin receptor 2 (GALR2); O43603; AID 803; GALR2-expressing cells, agonist activation read-out; 140,000 compounds, 0.48% hits; activation, %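 (tested at 5 µM)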;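 active = above mean plus 3 SD of all compounds, about 5% in these data, not always enough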;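 note: 0% = vehicle buffer wells and 100% = reference agonist at full effect; tested in CHO reporter cells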
Target sequence (O43603 whole entry, looked up): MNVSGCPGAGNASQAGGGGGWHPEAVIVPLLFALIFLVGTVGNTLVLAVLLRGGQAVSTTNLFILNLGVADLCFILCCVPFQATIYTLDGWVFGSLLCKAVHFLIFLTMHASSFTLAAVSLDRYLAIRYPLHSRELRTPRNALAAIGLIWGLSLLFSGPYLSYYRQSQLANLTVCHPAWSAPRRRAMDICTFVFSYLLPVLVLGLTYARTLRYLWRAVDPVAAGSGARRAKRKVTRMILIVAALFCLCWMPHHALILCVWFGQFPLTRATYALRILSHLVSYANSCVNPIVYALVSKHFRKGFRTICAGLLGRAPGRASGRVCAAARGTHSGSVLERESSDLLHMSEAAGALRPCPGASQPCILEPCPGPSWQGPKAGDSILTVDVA
HSV augment – increases HSV replication in cells; HSV replication augmentation in cells, fold increase; maximum fold increase; 220,000 compounds, 0.005% hits; AID 1956;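 active = peak rise of 1.5-fold or more in the series; tested in PC3 cells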;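 note: first round at 10 µM; read as green reporter fluorescence; hits show the peak of a series up to 25 µM; 1 = signal of infected wells without compound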
Insulin prom inh cell count – further read-out of Insulin prom inh, marked with its call; normalized cell count, %; measured here: cell count, toxicity; reference of the scale not given here;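 cells exposed to compound for 48 h; stained nuclei by imaging scaled within each plate; lower means fewer cells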
HSV augment primary fold – recorded beside HSV augment, whose call it bears; fold increase; compound at 10 µM; measured here: primary screen fold increase 10 uM; tested in PC3 cells;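 GFP signal in the first replicate; 1 = infected wells without compound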
* = called active by the depositor; i = inactive; x = not tested or not shown.

Below each SMILES: PKD1 inh | RGS16-Gao HTS | Insulin prom inh | Insulin prom inh cell count | GALR2 ag | HSV augment | HSV augment primary fold
(1) CC1=CCC(C(C)(C)NC(=O)c2ccccc2)C/C1=N\O (centres undefined)
  -11 | x | -30 | 156 | -3.9 | i | 1
(2) Cc1ccc(NC(=O)N2CCCCC2)cc1NC(=O)N1CCCCC1
  x | 120 | x | x | x | i | 0.97
(3) CCN(CC)c1ccc(NC(=O)c2cnn(CC)c2)cc1
  -7 | 107 | 13 | 104 | -1.0 | i | 0.96
(4) O=C(CSCc1cccc(F)c1)NCc1ccccc1
  -1 | 111 | -58 | 93 | x | i | 0.93
(5) CCS(=O)(=O)N1CCC(C(=O)NCc2cccs2)CC1
  -6 | 106 | 36 | 78 | -2.1 | i | 0.94
(6) CCN(CC)CCNC(=O)CCCCn1c(=S)[nH]c2c([nH]c3ccc(OC)cc32)c1=O
  -7 | 103 | x | x | -1.2 | i | 1.1
(7) Cc1cccc(CSCC(=O)NCc2ccc(S(N)(=O)=O)cc2)c1
  -7 | 100 | x | x | x | i | 0.9
(8) OC(COc1ccccc1)CN1CCCCCC1 (centres undefined)
  0 | 104 | 0 | 104 | x | i | 0.95
(9) CC(=O)c1cccc(N(CC(=O)Nc2ccc(F)cc2)S(C)(=O)=O)c1
  2 | 97 | -3 | 104 | 0.2 | i | 0.92
(10) CCC(CC)=N/N=C/c1c(O)n(CC)c2cc(C3=NNC(=O)CC3)ccc12
  9 | 24* | 50 | 113 | -1.0 | i | 0.95
(11) COc1ccccc1C(=O)N/C(=C\c1ccc(Br)cc1)C(=O)NCCO
  -4 | 108 | -9 | 105 | 0.2 | i | 0.82
(12) COC(=O)c1ccccc1SC1CC(=O)N(c2cccc(C)c2)C1=O (centres undefined)
  -4 | 92 | 37 | 88 | -1.0 | i | 1.1
(13) CCOC(=O)C1=C(C)NC(=O)/C1=C\N(C)C
  -2 | 96 | -62 | 127 | x | i | 1
(14) O=[N+]([O-])c1cccc(Cl)c1NCCNS(=O)(=O)c1ccccc1
  -6 | 99 | -3 | 145 | -2.4 | i | 1.1
(15) Cc1ccc(C)c(NC(=O)CSc2nc(C)cc(C)c2C#N)c1
  -1 | 96 | -324 | 43 | -0.2 | i | 0.89
(16) Cc1ccc(-c2csc(NC(=O)CCNC(=O)c3ccccc3Cl)n2)cc1
  -5 | 109 | 3 | 146 | 0.0 | i | 0.8
(17) Cc1nc(NC(=O)c2ccco2)sc1C(=O)Nc1ccc(Br)cc1
  7 | 101 | 27 | 110 | -1.1 | i | 0.91
(18) COc1ccc(CCNC(=O)CC2SC(=NCCC(C)C)NC2=O)cc1OC (centres undefined)
  15 | 98 | -6 | 82 | 0.1 | i | 0.93
(19) CCCc1nnc(NC(=O)CCC(=O)N2CCN(c3ccccn3)CC2)s1
  5 | 103 | 29 | 89 | -2.1 | i | 0.97
(20) O=C(c1ccc(Cn2ccc([N+](=O)[O-])n2)cc1)N1CCN(Cc2ccccc2)CC1
  x | 96 | x | x | x | i | 0.97
(21) Cc1ccc(NC(=O)CSc2nn(-c3ccc(Cl)cc3)c(=S)s2)cc1S(=O)(=O)N(C)C
  -3 | 12 | 22 | 71 | -2.8 | i | 0.87
(22) CCN1CCc2c(OCC(=O)Nc3cccc(C)c3)cccc2C1=O
  42 | 99 | 8 | 197 | x | i | 1
(23) Cc1ccc(S(=O)(=O)Cn2nnnc2C(CC(C)C)N2CCN(C(=O)c3ccco3)CC2)cc1 (centres undefined)
  -9 | 108 | 36 | 99 | -1.5 | i | 0.97
(24) Cc1ccc(OCC(=O)N/N=C/c2c[nH]c3ccccc23)c([N+](=O)[O-])c1
  0 | 102 | x | x | -0.4 | i | 1
(25) CCOC(=O)C1=C(C)NC2=C(C(=O)CCC2)C1c1cc(OC)ccc1OC (centres undefined)
  -2 | 101 | 27 | 124 | 0.4 | i | 0.83
(26) Cc1ccc(NC(=O)C2(c3ccccc3)CCOCC2)cc1
  2 | 52 | x | x | x | i | 0.89
(27) CC1=Nc2cc(C(=O)NCc3ccco3)ccc2Sc2ccc(C)cc21
  -7 | 51 | -62 | 5 | 1.1 | i | 0.61
(28) O=C(COC(=O)c1c(Cl)cccc1Cl)NC1CCCCC1
  -3 | 98 | x | x | x | i | 0.88
(29) CCNC(=O)CN(c1ccc(CC)cc1)S(C)(=O)=O
  -8 | 97 | 25 | 99 | -1.2 | i | 0.97
(30) O=C(C[n+]1cc(-c2ccccc2)n2c1CCC2)OCc1ccccc1
  4 | 105 | 3 | 117 | -1.6 | i | 1

A stretch from the list above, for reference:
Below each SMILES: PKD1 inh | RGS16-Gao HTS | Insulin prom inh | Insulin prom inh cell count | GALR2 ag | HSV augment | HSV augment primary fold
(23) Cc1ccc(S(=O)(=O)Cn2nnnc2C(CC(C)C)N2CCN(C(=O)c3ccco3)CC2)cc1 (centres undefined)
  -9 | 108 | 36 | 99 | -1.5 | i | 0.97
(24) Cc1ccc(OCC(=O)N/N=C/c2c[nH]c3ccccc23)c([N+](=O)[O-])c1
  0 | 102 | x | x | -0.4 | i | 1

Carrying on.
Below each SMILES: PKD1 inh | RGS16-Gao HTS | Insulin prom inh | Insulin prom inh cell count | GALR2 ag | HSV augment | HSV augment primary fold
(31) COC(=O)C(CC(=O)c1ccc(Cl)cc1)c1ccc(C(C)C)cc1 (centres undefined)
  3 | 58 | 6 | 138 | -1.1 | i | 0.98
(32) Cc1cnc(NC(=O)CSc2ccccc2)s1
  0 | 90 | 23 | 104 | -0.3 | i | 0.82
(33) CS(=O)(=O)N(CCc1ccccc1)CC(=O)NCc1ccc(Cl)cc1
  5 | 104 | x | x | x | i | 0.95
(34) CCOc1ccc(S(=O)(=O)N2CCCCC2)c(C)c1C
  -8 | 101 | x | x | x | i | 0.99
(35) Cc1ccc(OCC(=O)c2ccc(Cl)s2)c([N+](=O)[O-])n1
  -5 | 90 | x | x | x | i | 1
(36) CCNC(=O)COC(=O)c1cc(-c2ccc(OC)cc2)nc2ccccc12
  -1 | 102 | 21 | 121 | -2.4 | i | 1.2
(37) Cn1c2ccccc2c2cnn(CC(=O)Nc3ccc(F)cc3F)c(=O)c21
  x | 98 | x | x | x | i | 1.1
(38) C#CCn1c(=NC(=O)CSCC(=O)N2CCOCC2)sc2ccccc21
  -6 | 96 | 50 | 63 | -0.7 | i | 1
(39) Cc1ccc(NC(=O)CSc2nnc(C3CC3)n2N)cc1S(=O)(=O)N1CCOCC1
  12 | 106 | -9 | 124 | x | i | 0.98
(40) Nc1nnn(CC(=O)N/N=C/c2ccncc2)n1
  x | 100 | x | x | x | i | 1.1
(41) CCCCNC(=O)CC1SC(=NCC)N(CC)C1=O (centres undefined)
  2 | 107 | 20 | 138 | -2.2 | i | 0.98
(42) C=CCNC(=O)/C(C#N)=C/c1ccc(C)o1
  -7 | 105 | x | x | x | i | 1.1
(43) COc1cc(C2C(C#N)=C(N)Oc3c2ccc2ccccc32)ccc1OCC(=O)Nc1cccc(C)c1 (centres undefined)
  -13 | 97 | 21 | 102 | 0.2 | i | 0.99
(44) CN(C)S(=O)(=O)c1cc(C(=O)NCCCn2ccc3ccccc32)ccc1Cl
  -16 | 99 | x | x | -3.1 | i | 0.82
(45) COc1cc([C@@H]2c3cc4c(cc3[C@@H](NC3CCN(Cc5ccccc5)CC3)[C@H]3COC(=O)[C@H]23)OCO4)cc(OC)c1O
  x | 98 | x | x | x | i | 0.46
(46) CCC(C)n1[nH]c(=O)cc1N (centres undefined)
  -15 | 101 | 42 | 85 | 0.1 | i | 0.97
(47) O=P(Cc1cccc[n+]1[O-])(c1ccccc1)c1ccccc1
  -12 | 110 | 36 | 103 | -1.0 | i | 1.1
(48) C[C@H](NC(=O)c1nc[nH]c1C(=O)NCCCCCNC(=O)OC(C)(C)C)C(=O)OC(C)(C)C
  7 | 123 | x | x | x | i | 0.99
(49) C/C(O)=c1/cnc2nc3ccccc3n2c1=O
  -11 | 99 | x | x | x | i | 0.86
(50) O=C(c1ccco1)N1CCN(S(=O)(=O)c2cccc(C(F)(F)F)c2)CC1
  -3 | 103 | x | x | -1.4 | i | 1
(51) O=C(NCCc1ccccc1)c1cccc([N+](=O)[O-])c1
  -4 | 99 | -43 | 112 | -2.0 | i | 0.99
(52) Cc1nnc(N2CCc3ccccc3C2)[nH]c1=O
  2 | 102 | -12 | 158 | -2.0 | i | 1
(53) O=C(O)c1cccc(NC(=O)C2C3C=CC(C3)C2C(=O)OCC(F)(F)C(F)F)c1 (centres undefined)
  -9 | 101 | 26 | 118 | 2.6 | i | 0.93
(54) COc1ccc(C2NC(c3ccc(OC)cc3)C([N+](=O)[O-])C(C)(C)C2[N+](=O)[O-])cc1 (centres undefined)
  -4 | 100 | x | x | x | i | 0.78
(55) N#CCSc1nc2sc3c(c2c(=O)n1C1CCCCC1)CCCC3
  13 | 99 | x | x | -1.3 | i | 0.97
(56) O=S(=O)(c1ccccc1)N(CC(O)Cn1c2ccccc2c2ccccc21)c1ccccc1 (centres undefined)
  2 | 101 | x | x | -1.6 | i | 0.97
(57) CSc1nc2n(n1)C(C)C1=C(CCCC1=O)N2 (centres undefined)
  4 | 107 | x | x | x | i | 1
(58) Cc1cccc(-n2c(C)nc3sccc3c2=O)c1
  -5 | 96 | x | x | -1.7 | i | 0.84
(59) CCOC(=O)C(=O)Nc1ccccc1C(=O)Nc1ccc(OC)cc1
  -5 | 102 | 15 | 98 | -1.8 | i | 1.1
(60) O=C(Nc1ccc(OCC(=O)N2CCOCC2)cc1)c1cncc(Br)c1
  5 | 102 | 25 | 135 | 0.1 | i | 0.87
(61) COC(=O)c1cn(Cc2cccc(C)c2)nn1
  4 | 112 | 11 | 71 | -1.4 | i | 1
(62) Cc1ccc2nc(SCC(=O)NCC3CCCO3)c(C#N)cc2c1 (centres undefined)
  -5 | 98 | x | x | -2.1 | i | 0.93
(63) N#CCC(=O)NCCCc1ccccc1
  8 | 84 | 0 | 109 | -0.6 | i | 0.96
(64) Cn1nnc(NC(=O)CSc2ncn[nH]2)n1
  -4 | 109 | -17 | 72 | 1.1 | i | 1
(65) CNC(=O)/C(C#N)=C/c1cn(CC(=O)OC)c2ccccc12
  x | 103 | x | x | x | i | 1
(66) Cc1ccc2oc3c(c(=O)c2c1)C(c1ccc(F)cc1)N(CCCN1CCOCC1)C3=O (centres undefined)
  -9 | 105 | x | x | -0.5 | i | 0.93
(67) COc1ccc(Cl)cc1NC(=O)CSc1nncn1-c1cccnc1
  -6 | 99 | -7 | 116 | -1.5 | i | 1
(68) COC(=O)c1cc(OC)c(OC)cc1NC(=O)CN1CCCCC1
  -14 | 100 | 5 | 88 | 0.4 | i | 0.93
(69) Cn1c(=O)c2c(ncn2CC(=O)N/N=C/C=C/c2ccccc2)n(C)c1=O
  -8 | 97 | x | x | -0.9 | i | 0.99
(70) Cc1nc2ccccc2n2c(-c3ccccc3)c3c(=O)n(C)c(=O)n(C)c3c12
  -6 | 106 | -171 | 85 | -0.8 | i | 1
(71) O=[N+]([O-])c1cccc(-c2c[n+]3c(n2-c2ccccc2)SCC3)c1
  0 | 112 | -33 | 87 | x | i | 0.99
(72) NC(=O)c1cc2ccccc2oc1=NCc1ccccc1
  -9 | 115 | 27 | 181 | -3.3 | i | 0.78
(73) COc1ccc(S(=O)(=O)N[C@@H](C)C(=O)OCC(=O)Nc2cc3oc4ccccc4c3cc2OC)cc1
  -6 | 55 | 2 | 112 | -0.9 | i | 0.93
(74) CCOC(=O)Nc1nnc(Cc2ccc(Cl)c(Cl)c2)s1
  0 | 105 | x | x | x | i | 0.89
(75) Cc1ccc2nsnc2c1S(=O)(=O)N(Cc1cc2cccc(C)c2[nH]c1=O)CC1CCCO1 (centres undefined)
  -11 | 109 | 72 | 63 | -4.4 | i | 0.89
(76) N#Cc1c(N)nc2c(c1-c1cccc(O)c1)CCCCCC2
  2 | 101 | x | x | 0.5 | x | x
(77) CCOC(=O)C1(CCc2ccccc2)CCN(C(=O)C2CCOCC2)CC1
  5 | 107 | x | x | x | i | 0.98

Profiles as entered above. Order of values: PKD1 inh, RGS16-Gao HTS, Insulin prom inh, Insulin prom inh cell count, GALR2 ag, HSV augment, HSV augment primary fold
Cn1c(=O)c2c(ncn2CC(=O)N/N=C/C=C/c2ccccc2)n(C)c1=O is listed with -8, 97, x, x, -0.9, i, 0.99
CCOC(=O)C1(CCc2ccccc2)CCN(C(=O)C2CCOCC2)CC1 is listed with 5, 107, x, x, x, i, 0.98
Cc1ccc2nc(SCC(=O)NCC3CCCO3)c(C#N)cc2c1 (centres undefined) is listed with -5, 98, x, x, -2.1, i, 0.93
N#CCC(=O)NCCCc1ccccc1 is listed with 8, 84, 0, 109, -0.6, i, 0.96
COc1ccc(Cl)cc1NC(=O)CSc1nncn1-c1cccnc1 is listed with -6, 99, -7, 116, -1.5, i, 1

From PubChem
